From PubChem BioAssay
HIV Env fusion = blocks HIV Env-driven cell-cell fusion. HeLa-JRFL Env/CEM21 cell fusion, luciferase. inhibition, % at 12.3 µM. hit rate 1.1% among 360,000. AID 651610;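 active = mean replicate inhibition score of at least 50 and every replicate individually at or above 50; inconclusive = only one of the two criteria met; inactive = mean below 50 and not all replicates reaching 50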;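 note: 0% = plate neutral controls and 100% = maraviroc near 300 nM; one replicate is shown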
MT1-MMP act inh = inhibitors of human MT1-MMP activation. P50281. HT1080 RFP-PRO-GFP cells, GFP/RFP ratio fluorescence, overnight; percent of plate control window, DMSO zero. GFP/RFP ratio change, % at 20 µM. hit rate 0.061% among 360,000. AID 651647;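 active = GFP/RFP ratio change of at least 30% with cell ATP level not reduced by more than half and red fluorescence within 50% of control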; note: strong numbers were not always called active
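Assay system: RFP-PRO-GFP reporter HT1080 cells; read-out basis: GFP/RFP fluorescence ratio; benchmarks: DMSO wells and RFP-L50D-GFP cells; doses: 20 µM single dose, 1% DMSO; schedule: overnight cell settling, then overnight compound exposure, 37 °C, 5% CO2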
MT1-MMP act inh RFP = also measured in MT1-MMP act inh; calls as there; RFP signal change, %; measured here: RFP expression control read;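 0 = vehicle wells; hits needed this value within 50% of zero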
Active calls of the source: *; i = inactive; ? = inconclusive. A portion of the library; count on the stated rates, not on these rows.

HIV Env fusion	MT1-MMP act inh	MT1-MMP act inh RFP	Compound
-4	11	7	COC(=O)C[C@H]1C=C[C@H](NC(=O)c2ccc(F)cc2)[C@@H](CO)O1
?	10	6	CC(=O)CC1N(S(=O)(=O)c2ccc(C)cc2)c2ccccc2N1S(=O)(=O)c1ccc(C)cc1
20	2	1	O=C(NCc1ccccc1)C1C(=O)Nc2ccccc2C(=O)N1Cc1ccccc1 (stereo unspecified)
60*	-6	-2	CN(C)CC1CCC/C(=C\c2ccc(OC(=O)c3ccc(Cl)cc3)cc2)C1=O (stereo unspecified)
-39	-10	-1	Cc1ccc(-n2nnnc2SCC(=O)NCC2(N3CCOCC3)CCCCC2)cc1
-35	-7	-1	COc1ccc(C(C(=O)NC(C)(C)C)n2c(-c3ccc(-c4ccccc4)cc3)nc3ccccc32)cc1 (stereo unspecified)
-13	1	2	CN(Cc1ccco1)C(=O)CN1C(=O)NC(c2ccccc2)(c2ccccc2)C1=O
39	7	-18	OCC1OC(n2cnc3c(NCc4ccccc4O)ncnc32)C(O)C1O (stereo unspecified)
11	-1	1	C[C@@H]1O[C@H](C2CCCC2)Cc2[nH]c(=S)[nH]c(=O)c21
27	0	-2	O=C(NC1CCCC1)C1c2ccccc2OCC(=O)N1Cc1ccccn1 (stereo unspecified)
0	-1	-8	COC(=O)[C@@]12C[C@@H](CC(=O)NCc3cccc(C(F)(F)F)c3)C(=O)N(Cc3ccc4c(c3)OCO4)C1=CCC(C)(C)C2
16	1	-1	O=C1CCC(C(=O)N(CCO)Cc2ccccc2)CN1CCc1cccc(F)c1 (stereo unspecified)
-2	6	5	C[C@@H](NC(=O)[C@@H]1CCCN1C(=O)[C@@H]1CCCN1C(=O)c1ccc(Cl)cc1)c1ccccc1
-11	-15	-11	CCCCCNC(=O)C(c1ccc(-c2ccccc2)cc1)n1c(=O)c(-c2ccccc2)nc2ccccc21 (stereo unspecified)
-8	-2	1	CC(C)(C)N1C(=O)c2ccccc2NC(=O)C1C(=O)NCCOc1ccccc1 (stereo unspecified)
-28	0	2	Cc1ccccc1-c1cnc(C(O)c2ccccc2)[nH]1 (stereo unspecified)
-1	-2	1	ON=C1C2CC=C(c3ccccc3)C1CCC2 (stereo unspecified)
-11	-1	0	COc1cccc(-c2nc3nc(C)cc(C)n3c2NCc2ccccc2)c1
13	2	-6	CC(C)Cn1c(N)c(C(=O)CSc2nnnn2-c2ccc(Cl)cc2)c(=O)n(C)c1=O
47	107	50	CN(C)c1ccc(C=c2c3cc([N+](=O)[O-])ccc3n3c2cc(-c2ccccc2)[n+]3C)cc1
1	6	4	O=c1[nH]nc2c3ccccc3occ1-2
-7	2	2	COC(=O)[C@@]1(Sc2ccc(OC)cc2)CC(=O)N[C@@H]1c1ccccc1
i	8	-3	CC(C)C[C@@H](CN1CCCC1CN1C(=S)NC[C@@H]1Cc1ccccc1)N1C[C@H](Cc2ccccc2)N(CC2CCCCC2)C1=S (stereo partly specified)
5	3	-6	Cc1cc2nc(-c3nnnn3-c3c(C)cccc3C)c(=O)[nH]c2cc1C
-1	-5	-2	CCC1(c2ccccc2)SC(=O)NC1=O (stereo unspecified)
6	-31	-34	CC(C)[C@@H](NC(=O)OC(C)(C)C)c1cc(C(=O)c2c(-c3ccccc3)[nH]c3ccccc23)c(N)s1
40	0	-1	COc1cc(S(=O)(=O)n2ccc(C)n2)c(C)cc1C
16	-3	-8	COc1ccc(C(=O)C[C@@H]2OC[C@H](Cc3ccccc3)N2S(=O)(=O)c2ccc(C)cc2)cc1OC
-29	-1	-5	COc1cc(CNc2ncnc3c2ncn3[C@H]2CN(Cc3cccc(C(F)(F)F)c3)C[C@@H](CO)O2)cc(OC)c1OC
-15	0	1	CN(C(=O)COc1ccccc1)c1ccc([N+](=O)[O-])cc1
20	-4	-6	CCCCn1nnnc1C(c1ccccc1)N1CCN(Cc2c(F)cccc2Cl)CC1 (stereo unspecified)
10	5	6	COc1ccc(CCN2C(=O)COc3ccccc3C2C(=O)Nc2ccc3c(c2)OCCO3)cc1OC (stereo unspecified)
0	4	3	CN(C(=O)C1CC1)c1ccccc1
-384	24	7	C=COC(=O)NC1CCc2cc(OC)c(OC)c(OC)c2-c2ccc(SC)c(=O)cc21 (stereo unspecified)
-4	8	-9	O=S1(=O)CC(N2CCN(Cc3ccccc3F)CC2)CN1Cc1cn(Cc2cccc(Cl)c2)nn1 (stereo unspecified)
-12	3	2	COc1ccc(-c2ccc(OC)c(OC)c2OC)c(OC)c1OC
-6	4	-3	COc1cccc(-c2nc3nc(C)cc(C)n3c2NC2CCCCC2)c1
10	5	2	CC(C)=CCC[C@H](C)C[C@@H]1Cc2[nH][nH]c(=O)c2[C@H](c2ccc(Cl)cc2)O1
-2	-2	-5	COC(=O)[C@]12CCCCC=C1N(Cc1ccc(Cl)cc1Cl)C(=O)[C@H](CC(=O)NCc1ccc(C)o1)C2
-1	-1	4	Cc1cc(O)c(C(C)C)cc1N=Cc1ccc([N+](=O)[O-])cc1
-3	4	5	CCCC(=O)N1CCC1(C)C(=O)Nc1cc(C)ccc1C (stereo unspecified)
?	-10	-18	CC(C)C1C(=O)N(Cc2cn(CC3CCCCC3)nn2)CCS(=O)(=O)N1Cc1ccc(-c2ccc(F)cc2)cc1 (stereo unspecified)
13	-5	-5	COC(=O)c1ccc2nc(-c3cccc(Br)c3)c(Cc3ccccc3C(F)(F)F)n2c1
5	5	5	CC1(C(=O)NCc2ccccc2)CN(S(C)(=O)=O)CC(=O)N1CCc1ccc(O)cc1 (stereo unspecified)
-19	1	-4	COc1ccc(C(=O)Cc2ccccc2C(=O)O)cc1
-17	-1	2	C[N+](C)(C)CCN1CCc2ccccc21
-33	3	3	CCC(C(=O)NC1CCCC1)n1c(C2CCCC2)nc2ccccc21 (stereo unspecified)
13	3	-3	O=C(O)C1=CCC(c2ccc(Cl)c(Cl)c2)N(S(=O)(=O)c2ccc(F)cc2)C1c1cccc(F)c1 (stereo unspecified)
-37	2	6	COCc1cn(-c2nc3ccccc3s2)nn1
-5	10	0	O=C(CCl)NC(Cc1ccccc1)C(=O)OCC(=O)c1ccc(-c2ccccc2)cc1 (stereo unspecified)
-24	8	9	Cc1ccc(Cn2cc(CN3CC(N4CCN(CCO)CC4)CS3(=O)=O)nn2)cc1 (stereo unspecified)
12	-2	-4	COC(=O)[C@]12CCCCC=C1N(Cc1ccc(Cl)cc1Cl)C(=O)[C@H](CC(=O)N1CCOCC1)C2
-6	-4	-1	COC(=O)[C@@]1(Cc2ccc(F)cc2)[C@H]2c3cc(C(=O)N(C)C)n(Cc4ccc(S(C)(=O)=O)cc4)c3C[C@H]2CN1C(=O)c1ccccc1
-14	1	3	O=S1(=O)CC(N2CCCC2)CN1Cc1cn(Cc2cccc(C(F)(F)F)c2)nn1 (stereo unspecified)
-13	2	3	Cc1cccc(C)c1-n1nnnc1C1(C)CCC(=O)N1Cc1ccco1 (stereo unspecified)
20	5	5	COc1ccc([C@H]2CC(=O)C[C@@H](CCn3ccnn3)O2)cc1
-10	0	3	O=C(C(=O)N1CCN(c2ccccc2)CC1)c1ccco1
2	-4	-5	Cc1ccc(S(=O)(=O)N2[C@H](CC(=O)c3ccc(F)cc3)OC[C@@H]2C(C)C)cc1
-17	-8	-6	Cc1cc(C)n2c(Nc3c(C)cccc3C)c(-c3ccccn3)nc2n1
13	-1	-8	Cn1c(NCCc2ccncc2)nc2cc(-c3ccsc3)sc2c1=O

Seven entries out of the list above, ordered by the value under MT1-MMP act inh, low to high.
HIV Env fusion	MT1-MMP act inh	MT1-MMP act inh RFP	Compound
-17	-8	-6	Cc1cc(C)n2c(Nc3c(C)cccc3C)c(-c3ccccn3)nc2n1
-6	-4	-1	COC(=O)[C@@]1(Cc2ccc(F)cc2)[C@H]2c3cc(C(=O)N(C)C)n(Cc4ccc(S(C)(=O)=O)cc4)c3C[C@H]2CN1C(=O)c1ccccc1
-17	-1	2	C[N+](C)(C)CCN1CCc2ccccc21
-10	0	3	O=C(C(=O)N1CCN(c2ccccc2)CC1)c1ccco1
-13	2	3	Cc1cccc(C)c1-n1nnnc1C1(C)CCC(=O)N1Cc1ccco1 (stereo unspecified)
-33	3	3	CCC(C(=O)NC1CCCC1)n1c(C2CCCC2)nc2ccccc21 (stereo unspecified)
-5	10	0	O=C(CCl)NC(Cc1ccccc1)C(=O)OCC(=O)c1ccc(-c2ccccc2)cc1 (stereo unspecified)

Some of the entries so far, field by field:
> CCC(C(=O)NC1CCCC1)n1c(C2CCCC2)nc2ccccc21 (stereo unspecified)
  HIV Env fusion = -33	MT1-MMP act inh = 3	MT1-MMP act inh RFP = 3
> O=C(O)C1=CCC(c2ccc(Cl)c(Cl)c2)N(S(=O)(=O)c2ccc(F)cc2)C1c1cccc(F)c1 (stereo unspecified)
  HIV Env fusion = 13	MT1-MMP act inh = 3	MT1-MMP act inh RFP = -3

Continued.
HIV Env fusion	MT1-MMP act inh	MT1-MMP act inh RFP	Compound
-1	3	5	CC(C)CCN1C(=O)CSCC1(C)C(=O)NC(C)C (stereo unspecified)
-17	8	4	N=C(N)n1ncc2c1CCCC2=O
-17	-1	1	O=C(NCc1ccccn1)[C@@H]1CCCN1C(=O)[C@@H]1CCCN1C(=O)c1cccc2ccccc12
-9	-6	-6	Cc1cccc(C)c1-n1nnnc1C(c1ccnc2ccccc12)N1CCN(C(=O)OC(C)(C)C)CC1 (stereo unspecified)
30	10	-22	COc1ccc2[nH]c3c(C)c4cc[n+](C)cc4c(C)c3c2c1
-17	1	4	O=S1(=O)CC(N2CCN(CCO)CC2)CN1Cc1cn(Cc2ccc(C(F)(F)F)cc2)nn1 (stereo unspecified)
11	-3	4	Cc1ccc(-c2nc3c4ccccc4ccn3c2Cc2cccc(Cl)c2)cc1
-8	5	8	CSCCC(c1nc2ccccc2[nH]1)n1c(C)nc2ccccc21 (stereo unspecified)
32	-3	-13	COc1ccccc1CNc1nc2cc(-c3ccsc3)sc2c(=O)n1C
-111	3	-7	CCCCC1Cc2[nH]c(=S)[nH]c(=O)c2C(c2ccc3ccccc3c2)O1 (stereo unspecified)
34	-1	-7	Cc1ccc(S(=O)(=O)N2c3ccccc3OC(C(=O)OC(C)(C)C)(C(=O)OC(C)(C)C)C2CC(=O)c2ccccc2)cc1 (stereo unspecified)
6	-16	-15	CSCCC(C(=O)Nc1c(C)cccc1C)n1c(COc2ccc(C)cc2)nc2ccccc21 (stereo unspecified)
-5	3	7	O=S1(=O)CC(N2CCCC2)CN1Cc1cn(Cc2cccc(Cl)c2)nn1 (stereo unspecified)
1	0	0	CC(=NNC(N)=O)C1=C(O)C(C(C)C)NC1=O (stereo unspecified)
?	-4	-5	CC(C)(C)NC(=O)C(c1cc2ccccc2o1)n1c(=O)c(-c2cc3ccccc3[nH]2)nc2ccccc21 (stereo unspecified)
1	3	5	C#CCNC(=O)C[C@@H]1C[C@@]2(C(=O)OCC)CCCC=C2N(CCC2=CCCCC2)C1=O
-2	-1	1	CCCCn1nnnc1C(c1cc2ccccc2o1)N(CCN(C)C)Cc1ccccc1 (stereo unspecified)
5	2	0	O=c1[nH][nH]c2c1[C@@H](c1ccc(F)cc1)O[C@H](C1CCCCC1)C2
8	-4	5	COC(=O)Cn1ccnc1[N+](=O)[O-]
-9	-3	-2	Cc1ccc(S(=O)(=O)C[C@@H]2OC[C@H](Cc3ccccc3)N2S(=O)(=O)c2ccc(C)cc2)cc1
-58	-1	2	CC(C)(C)NC(=O)C1c2ccccc2OCC(=O)N1CC(F)(F)F (stereo unspecified)
12	1	-14	Cc1ccc(N2CCN(C(=O)C3CCN(S(=O)(=O)c4cccc5nsnc45)CC3)CC2C)cc1 (stereo unspecified)
-6	5	6	CC(C)NC(=O)C1(C)CN(S(C)(=O)=O)CC(=O)N1Cc1ccc2c(c1)OCO2 (stereo unspecified)
0	1	-10	Cc1ccc2nc(-c3ccccc3)c(Cc3cccc(F)c3)n2c1
-12	-8	-14	Cc1nc2c(OCCOc3ccc(F)cc3)cccn2c1N(C)C(=O)CCC1CCCC1
-1	5	0	CC(C)C[C@H]1CN(CCCC[C@@H]2CNC(=O)C(=O)N2CC2CCCCC2)C(=O)C(=O)N1Cc1ccccc1
-26	4	4	CC(C)C[C@H]1CN(CCCC[C@@H]2CNC(=O)C(=O)N2Cc2ccccc2)C(=O)C(=O)N1CCc1ccccc1
-12	-2	6	O=C1Nc2ccccc2-n2nnnc2C1N1CCN(CCN2CCOCC2)CC1 (stereo unspecified)
-17	-6	1	CCCCNC(=O)C(NC(=O)Cc1cc(OC)cc(OC)c1)C(=O)c1ccccc1 (stereo unspecified)
3	2	4	CCCc1cc(CN2CCOCC2)c(O)c(CN2CCOCC2)c1O
